Sa growth 42C: S. aureus growth inhibition at 42 and 30 °C, primary screen, LtaS inhibitor project, RN4220, two temperatures. OD600, 20 h, 42 °C; stronger effect = lower value. relative growth, % (no concentration beside the values). 170,000 compounds, 0.53% hits. AID 720641, 2013;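 active = growth at 42 °C up to 50% and 20 or more points under that at 30 °C, or under 10% at both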;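 note: 300 nL library stock went into each well; scaled to the means of positive and negative controls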
HCMV NEC inh: inhibitors of HCMV UL50-UL53 interaction, biochemical, HTRF; HCMV UL50-UL53 nuclear egress complex (human cytomegalovirus); 190,000 compounds, 0.15% hits; normalized percent inhibition; inhibition, % (no concentration beside the values);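 active = both replicates at 50% or more, plus weaker picks with an unusually low signal ratio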;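 note: stock transfer was 100 nL into about 20 µL; 0% = negative control wells and 100% = wells with untagged competitor protein; inactives centre near -12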
GIV-Gai inh: inhibitors of GIV peptide binding to Galpha-i3, primary screen, biochemical, fluorescence polarization, FITC-GIV GBA peptide, rat Galphai3; 90 min; stronger effect = lower value; scaled: aluminum fluoride 0%, vehicle 100%; 210,000 compounds, 0.42% hits; percent of control (FP), % (no concentration beside the values); Guanine nucleotide-binding protein G(i) subunit alpha-3 (Rattus norvegicus), P08753; AID 1224905, 2016;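 active = replicate mean at 85% of control or lower, very high polarization wells dropped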;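 note: wells of about 15 µL received 100 nL stock; the first replicate is given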
Target sequence (P08753 whole entry, looked up): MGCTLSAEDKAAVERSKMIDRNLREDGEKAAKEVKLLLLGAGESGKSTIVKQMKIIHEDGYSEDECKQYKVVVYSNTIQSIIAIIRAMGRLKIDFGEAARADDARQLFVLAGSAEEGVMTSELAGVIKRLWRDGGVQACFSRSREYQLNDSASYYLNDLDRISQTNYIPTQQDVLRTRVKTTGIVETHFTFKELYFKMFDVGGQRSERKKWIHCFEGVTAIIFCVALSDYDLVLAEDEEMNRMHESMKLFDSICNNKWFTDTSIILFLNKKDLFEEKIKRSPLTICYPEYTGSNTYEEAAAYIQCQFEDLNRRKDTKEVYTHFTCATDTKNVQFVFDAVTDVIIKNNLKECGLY
Sa growth 42C second temp: also measured in Sa growth 42C; calls as there; relative growth, %; measured here: growth at 30 °C;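 optical density after 20 h as mean of two plates; 100% = untreated growth and lower means inhibition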
* marks the source's active call; other numbers are inactive results; x = not tested or not shown; & = joins results of further samples.

SMILES	Sa growth 42C	Sa growth 42C second temp	HCMV NEC inh	GIV-Gai inh
N#Cc1ccccc1NC(=O)COC(=O)c1oc2ccccc2c1CSC1CCCCC1	107	92	-22	x
CC1CCN(S(=O)(=O)c2ccc(-c3noc(-c4cncc(Br)c4)n3)cc2)CC1	x	x	-20	103
CCOc1ccc2nc(N3CCC(C(=O)NC(C)CC)CC3)sc2c1 (configuration not stated)	x	x	-29	100
CCOc1ccc2nc(NC(=O)C3CCN(C(=O)c4ccc(-c5noc(C)n5)cc4)CC3)sc2c1	x	x	-17	105
O=C(Nc1ccc(N2CCN(c3ccc(C(F)(F)F)cn3)CC2)nc1)Nc1ccccc1OC(F)(F)F	97	96	-15	104
Cc1cccc(NC(=O)CSc2nnc(CCC(=O)O)c(=O)n2N)c1	115	88	-2	x
CN(C)c1ccc(-c2nc3cc(NC(=O)c4ccc([N+](=O)[O-])cc4[N+](=O)[O-])ccc3o2)cc1	x	x	-27	99
COc1ccc(N=C(Nc2ccc(OC)cc2)SC)cc1	101	79	0	x
CCOC(=O)Nc1nnc(Cc2cccc(Br)c2)s1	101	99	1	98
COc1ccc(OC)c2sc(NC(=O)c3ccc(S(=O)(=O)N4CCCC4)cc3)nc12	113	105	x	104
NCC(c1ccccc1)c1ccccc1	99	93	-3	x
O=c1c2ccccc2[nH]c(=S)n1-c1cccc(S(=O)(=O)N2CCCC2)c1	84	90	-4	x
O=C(NCCc1ccccc1)c1ccoc1COc1ccccc1	113	105	-11	113
COc1ccccc1C(=O)NC1CCN(c2ncccn2)CC1	104	89	-16	96
O=C(NCc1cccnc1)c1nn(-c2ccc(F)cc2)nc1CO	106	90	18	103
CN(CCCNC(=O)c1cccn1-c1cccnc1)c1ccccc1	x	x	-8	110
COc1ccccc1Cn1c(=O)c2cccnc2n(CC(=O)NCc2ccc(C)cc2)c1=O	102	85	-41	100
CC(C)c1nnc(-c2cc3sccc3s2)o1	98	74	-44	103
Cc1nc(-c2cc(C#N)c(SCCNC(=O)c3ccc(Cl)cc3Cl)nc2C)cs1	89	95	28	105
COc1ccc(N(C)C(=O)Cn2cnc3sc(C)c(S(=O)(=O)N4CCN(c5ncccn5)CC4)c3c2=O)cc1	99	94	-27	106
Cc1ccc(/C=C/c2onc(C)c2S(=O)(=O)N2CCC(C(=O)Nc3cc(C)ccc3C)CC2)cc1	93	91	x	99
CC1CCN(c2nc(-c3ccc(C(C)C)cc3)c(C#N)c(=O)[nH]2)CC1	80	91	-2	100
CCCn1c(=NC(=O)CS(=O)(=O)c2ccccc2)sc2cc(S(C)(=O)=O)ccc21	109	101	-6	99
O=C(O)c1ccnc(-c2cc(C(=O)O)ccn2)c1	120	86	-10	104
C[C@H](NC(=O)c1cccc(C(F)(F)F)c1)c1nc2ccccc2[nH]1	86	95	-12	x
Cc1ccccc1N1CC(c2nc3ccccc3n2Cc2ccc(Br)cc2)CC1=O (configuration not stated)	70	25	-6	104
CN1CCN(CC(O)COCc2ccccc2)CC1 (configuration not stated)	83	86	-10	x
COC(=O)c1ccc(NC(=O)CNC(C)(C)CO)cc1	79	91	-15	x
O=C(NCCO)c1ccc2c(c1)OCO2	100	75	-3	100
Cc1ccsc1CN(Cc1ccco1)c1cnc(S(C)(=O)=O)nc1C(=O)Nc1ccc(Cl)cc1	93	88	-12	101
Cc1ccc(SC(C)C(=O)O/N=C(\N)c2ccccn2)cc1 (configuration not stated)	115	100	-2	105
CCc1ccc(NC(=O)Nc2nnc(N(C)C3CCCCC3)s2)cc1	96	95	10	102
Cc1ccc(-c2n[nH]c(=O)c3ccccc23)cc1S(=O)(=O)NC(C)(C)C	x	x	6	107
CCOC(=O)c1c(NC(=O)COc2ccc(OC)cc2)sc(C(=O)N(CC)CC)c1C	106	90	-20	101
CC1CCN(C(=O)c2cc3c(=O)[nH]c4ccccc4c3s2)CC1	83	80	-7	106
Cc1ccccc1OCC(=O)Nc1cc(-c2cccc(Br)c2)nn1-c1ccccc1	94	93	x	101

In another format: results already given
Each structure is followed by: Sa growth 42C	Sa growth 42C second temp	HCMV NEC inh	GIV-Gai inh
- Cc1ccc(SC(C)C(=O)O/N=C(\N)c2ccccn2)cc1 (configuration not stated)
 : 115	100	-2	105
- C[C@H](NC(=O)c1cccc(C(F)(F)F)c1)c1nc2ccccc2[nH]1
 : 86	95	-12	x

(more compounds)
SMILES	Sa growth 42C	Sa growth 42C second temp	HCMV NEC inh	GIV-Gai inh
COc1ccc(OC)c(CNc2nc3ccc(C)cc3n3nnnc23)c1	87	85	x	130
CCOC(=O)Cc1ccc(NC(=O)N2CC(C)Sc3ccccc32)cc1 (configuration not stated)	x	x	0	96
CCOc1cc2c(cc1/C=C1\NC(=S)NC1=O)OCO2	98	90	-7	111
COc1ccc(Cl)cc1C(=O)Nc1sc2c(c1C(=O)OC(C)C)CCCC2	105	93	-8	103
CCOC(=O)c1noc2ncn(CC(=O)Nc3cccc(C(F)(F)F)c3)c(=O)c12	105	93	x	104
CCOC(=O)c1ccc(N=Cc2cccs2)cc1	x	x	-11	104
Cc1ccc(S(=O)(=O)c2ccc(C(=O)Nc3ccc4c(c3)OCCO4)cn2)cc1C	x	x	-23	101
CCCCCn1c(=O)[nH]c2cc(C(=O)Nc3ccc(F)c(F)c3)ccc2c1=O	103	92	-51	104
CC(OC(=O)c1cccc(S(=O)(=O)NCc2ccccc2)c1)C(=O)N1CCN(C(=O)c2ccco2)CC1 (configuration not stated)	99	87	-2	x
COc1ccc(/C=C2\CCOC2=O)cc1	106	112	-81	97
CCOC(=O)N1CCN(Cc2nc3cc(NC(=O)c4ccccc4Cl)ccc3n2C(C)C)CC1	106	81	-2	96
Cc1cccc(CS(=O)(=O)Cc2ccc(C(=O)NCCCN3CCOCC3)o2)c1	101	84	4	103
CCC(Sc1nc2c(sc3ccccc32)c(=O)n1CCc1ccc(OC)c(OC)c1)C(=O)N(CC)CC (configuration not stated)	104	81	x	103
Cc1cc2c3c(c1)C1(C(=O)N3C(C)(C)CC2C)C(C#N)=C(N)Oc2cc(O)ccc21 (configuration not stated)	54	62	2	101
O=C1CC(C(=O)NCc2ccco2)C2(CCCCC2)O1 (configuration not stated)	98	87	-44	100
CC(=O)Nc1ccc(N=Cc2c[nH]c3ccccc23)cc1	105	81	-20	x
Nc1ccc(S(=O)(=O)NCCC2=CCCCC2)cc1	78	96	x	104
CCOc1ccc(C(=O)NCc2ccc3c(c2)CCN3C(=O)c2ccc(C)cc2)cc1OCC	110	101	x	107
O=C(NC(Cc1ccccc1)C(=O)O)OCc1ccccc1 (configuration not stated)	113	69	-13	103
CCOC(=O)c1c(NC(=O)c2cnn3c(C(F)F)cc(-c4ccccc4)nc23)sc2c1CCC2	x	x	-10	102
CCCCc1nc2ccccc2n1CC(=O)NC1=NCCS1	113	100	-10	x
O=C(CCCn1c(=O)c2sccc2n(Cc2ccc(Cl)cc2)c1=O)NCc1ccc2c(c1)OCO2	102	84	-10	108
C=CCN1C(=O)/C(=C\c2ccc(OCc3ccccc3C#N)cc2)C(=O)NC1=S	99	76	x	111
CC(C)CCC(=O)O	96	94	-3	x

Another view of part of the listing above:
SMILES | Sa growth 42C | Sa growth 42C second temp | HCMV NEC inh | GIV-Gai inh
O=C1CC(C(=O)NCc2ccco2)C2(CCCCC2)O1 (configuration not stated) | 98 | 87 | -44 | 100
CC(=O)Nc1ccc(N=Cc2c[nH]c3ccccc23)cc1 | 105 | 81 | -20 | x

Carrying on.
SMILES	Sa growth 42C	Sa growth 42C second temp	HCMV NEC inh	GIV-Gai inh
Cc1ccc(C)n1NC(=O)c1ccc(Oc2ncnc3sccc23)cc1	81	94	-30	x
COc1cc(N=c2scc(-c3ccc(S(=O)(=O)N4CCCC4)cc3)n2C)c(OC)cc1Cl	98	89	x	100
O=C1NCc2c1c1c3ccccc3[nH]c1c1[nH]c3ccccc3c21	x	x	4	101
COc1ccc(/C=c2\sc3nc4cc(Br)cnc4n3c2=O)cc1	95	110	12	100
COc1ccc(C2CC(=O)N(c3ccc(F)cc3F)C(=O)C2)cc1OC	x	x	-39	100
CCCCc1cc(=O)oc2c(C)c(OCC(=O)N3CCCC3)ccc12	73	88	-9	x
CCOc1ccc(NC2=NCCC(=O)N2Cc2cccs2)cc1	59	25	10	106
O=C(CSCc1nc2cccnc2n1C1CCCCC1)NCc1ccccc1	x	x	-16	110
O=C(O)C1C2C=CC3(O2)C1C(=O)N1c2ccccc2C2OCCC2C13 (configuration not stated)	104	99	8	96
S=c1[nH]nc(Nc2cccc(Br)c2)s1	33	27	-17	x
CC(=O)Nc1cccc(NC(=O)CSc2cn(CC(=O)N3CCCC3)c3ccccc23)c1	93	88	x	111
Cc1ccc(CNC(=O)CN2C(=O)C3(SCC(=O)N3c3ccc(F)c(F)c3)c3ccccc32)cc1 (configuration not stated)	100	84	x	104
CS(=O)(=O)Nc1ccc(N2CCN(c3ccccc3Cl)CC2)cc1C(=O)O	x	x	-3	101
Cc1c(NS(=O)(=O)c2ccc(Cl)cc2)c(-n2cnnc2)nn1C	x	x	-16	93
CCOc1cc(/C=c2\sc3nc4c(C)c(C)ccc4n3c2=O)cc(Cl)c1O	89	86	0	x
O=C(O)c1cc(N2CCN(C(c3ccccc3)c3ccccc3)CC2)ccc1NC(=O)C1CCC1	x	x	-33	102
COc1ccc(NC(=O)Cn2nc(C)c3c(C)n(-c4ccccc4)nc3c2=O)cc1OC	99	83	-6	108&100
COc1ccc(N2CCN(c3cc(C)nc4nncn34)CC2)cc1	84	94	7	100
COc1ccc(CCC(=O)NCCc2csc3nc(-c4cccc(F)c4)nn23)cc1	x	x	-6	97
CCOC(=O)c1cnc2c(-c3ccccc3)c(C(F)(F)F)nn2c1C	95	84	-12	103
O=C(Cn1c2ccccc2c(=O)c2ccccc21)Nc1ccc(I)cc1	x	x	-39	106
Cc1c(C)n(Cc2ccc(F)cc2)c2ccc(C(=O)Nc3ccc(Cl)cc3)cc12	84	75	x	103
N#C/C(=C(/O)CSc1ncnc2sc3c(c12)CCC3)c1nc2ccccc2[nH]1	78	76	-2	x
CN(C(=O)C1CCCN1S(=O)(=O)c1cc2c(cc1Cl)NC(=O)CO2)C1CCCCC1 (configuration not stated)	x	x	-10	106

Complete entries, looked up by structure. Order of screens: Sa growth 42C, Sa growth 42C second temp, HCMV NEC inh, GIV-Gai inh
O=C(Cn1c2ccccc2c(=O)c2ccccc21)Nc1ccc(I)cc1 is listed as x, x, -39, 106
COc1ccc(N2CCN(c3cc(C)nc4nncn34)CC2)cc1 is listed as 84, 94, 7, 100
O=C(O)c1cc(N2CCN(C(c3ccccc3)c3ccccc3)CC2)ccc1NC(=O)C1CCC1 is listed as x, x, -33, 102
CS(=O)(=O)Nc1ccc(N2CCN(c3ccccc3Cl)CC2)cc1C(=O)O is listed as x, x, -3, 101
CCOc1cc(/C=c2\sc3nc4c(C)c(C)ccc4n3c2=O)cc(Cl)c1O is listed as 89, 86, 0, x

(further entries)
SMILES	Sa growth 42C	Sa growth 42C second temp	HCMV NEC inh	GIV-Gai inh
CC(=O)Nc1ccc2c(c1)S(=O)(=O)c1cc(NC(C)=O)ccc1-2	83	87	-46	96
NC(=O)c1ccccc1OCC(=O)N1CCCc2ccccc21	119	100	8	x
COc1cc(OC)c(C2C(C#N)=C(N)Oc3n[nH]c(-c4ccc5c(c4)OCO5)c32)cc1OC (configuration not stated)	x	x	-51	103
O=C(Cc1ccsc1)Nc1ccc(-n2cnnn2)cc1	103	93	-38	x
COc1ccc(Cn2c(C(=O)O)c(CNC3CCCC3)c3ccc(OC)cc32)cc1	104	92	x	98
O=C(COc1ccccc1)Nc1ccc(OCc2cc(=O)n3ccsc3n2)cc1	98	90	-37	102
O=C(Nc1ccc2c(c1)OCO2)c1cccc(Nc2cc(-c3ccccc3)ncn2)c1	x	x	-26	109
O=C(Cn1nc2cnc3ccccc3n2c1=O)Nc1ccc2c(c1)OCCO2	x	x	-57	103
c1ccc2oc(-c3ccn[nH]3)cc2c1	95	90	-20	101
CCOC(=O)c1sc2nc(C)nc(OCc3ccccc3Cl)c2c1C	x	x	-10	103
CCOC(=O)Cc1nc(OCC(=O)c2ccc(F)cc2)cs1	91	92	x	331
O=C1CC(c2ccccc2C(F)(F)F)C2=C(CC(c3cccs3)CC2=O)N1 (configuration not stated)	88	87	x	100
O=C(CSc1nnc(-c2cccs2)n1CC1CCCO1)c1ccc2[nH]c(=O)oc2c1 (configuration not stated)	81	85	-16	x
Cc1cccnc1-n1c(C)c(C)c2c1ncn1nc(CSc3nc4ccccc4s3)nc21	x	x	-21	106
CN1C(=O)c2cc(NC(=O)c3cc(-c4ccncc4)nc4ccccc34)ccc2N2CCN=C12	x	x	-26	101
CCOc1cc(/C=C2\N=C(c3ccc(Cl)c([N+](=O)[O-])c3)OC2=O)ccc1OC(C)=O	x	x	-39	103
CC(C)n1c(=O)c(=O)[nH]c2cc(-c3noc(/C=C/c4ccccc4)n3)ccc21	x	x	-56	99
COc1ccc(Cl)cc1NC=C1C(=O)OC2(CCCCC2)OC1=O	99	90	x	97
N#Cc1cc2cc3c(cc2nc1SCc1cccnc1)OCCO3	102	84	-64	101
CCn1c(CN(c2ccc(F)cc2)S(C)(=O)=O)nnc1SCC(=O)c1ccc(Cl)cc1	x	x	-18	106
CCC(CC)C(=O)N1CCN(Cc2ccccc2)CC1	92	69	3	99
CCNC(=O)COc1ccc(N(C)S(=O)(=O)c2ccc(Cl)cc2)cc1	103	97	-7	x
COc1ccccc1Nc1nc2ccccc2c2nncn12	107	90	-5	106
CCN(C(=S)NC(=O)c1ccc(Br)o1)c1ccccc1	124	80	18	112
